# Source: PubChem BioAssay
# GIRK2 activ – activators of human GIRK2 potassium channels | HEK293-GIRK2 thallium flux, Thallos fluorescence | 0.05% of 63,000 active | G protein-activated inward rectifier potassium channel 2 (Homo sapiens), P48051 | calls only for hits at 25 µM;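 active means among the strongest 0.2% of first-round signals and kept after retests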;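 further: first round at about 10 µM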
# Target sequence (P48051 whole entry, looked up): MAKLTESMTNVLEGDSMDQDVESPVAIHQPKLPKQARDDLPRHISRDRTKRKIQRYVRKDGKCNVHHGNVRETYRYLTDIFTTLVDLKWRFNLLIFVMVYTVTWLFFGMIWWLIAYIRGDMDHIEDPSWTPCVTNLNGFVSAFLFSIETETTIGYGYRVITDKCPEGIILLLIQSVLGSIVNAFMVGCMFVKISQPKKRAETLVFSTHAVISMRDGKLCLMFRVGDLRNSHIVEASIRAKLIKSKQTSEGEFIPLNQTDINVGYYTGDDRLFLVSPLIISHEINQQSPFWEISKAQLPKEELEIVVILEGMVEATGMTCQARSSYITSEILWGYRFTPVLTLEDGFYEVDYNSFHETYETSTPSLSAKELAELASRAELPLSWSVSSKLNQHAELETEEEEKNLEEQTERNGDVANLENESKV
# Calls only; i = inactive.
# Start of the data: the first 18 records, to show the layout:
SMILES,GIRK2 activ
N#Cc1c(NC(=O)CCCSc2ccccc2)sc2c1CCC2,i
CCc1ccc(N2CCCCn3c2nc2c3c(=O)n(Cc3ccc(C)cc3)c(=O)n2C)cc1,i
Cc1cc(=O)n(CCNC(=O)c2ccc3ccccc3c2)cn1,i
CC(C)C[C@H](NC(=O)[C@@H](O)[C@H](N)Cc1ccccc1)C(=O)O,i
COc1ccccc1OCC#CCNC(=O)c1ccccc1F,i
CCOC(=O)c1cn[nH]c1S(=O)(=O)N1CCN(c2cccc(OC)c2)CC1,i
Nc1c(C(=O)NCc2ccccc2)nnn1-c1cccc(Br)c1,i
Cn1cc(C2=C(c3c[nH]c4ccccc34)C(=O)NC2=O)c2ccccc21,i
O=C(CCCl)Nc1ccc(-c2nc3ccccc3s2)cc1,i
Cc1ccc(-c2noc(C3CC(=O)N(c4ccc(C)c(C)c4)C3)n2)cc1 (centres undefined),i
CCOc1nn(CC)cc1C(=O)Nc1nnc(SCc2ccc(C(F)(F)F)cc2)s1,i
O=C(Cc1ccccc1Cl)NC1(c2nc(C3CC3)no2)CCCCC1,i
CNC(=O)Cc1csc(NC(=O)CN(C)c2nc3ccccc3s2)n1,i
CCOC(=O)c1c(C)n(C)c2ccc(OCC(O)CN3CCN(C(=O)c4ccccc4)CC3)cc12 (centres undefined),i
COc1ccc(OCCS(=O)(=O)N2CCCc3ccccc32)cc1,i
Fc1ccc(Nc2ncnc3[nH]ncc23)c(F)c1,i
O=C(Cn1ncc2c(c1=O)N(C1CC1)C(=O)CS2)NC1CCCCC1,i
Cc1cc(=O)[nH]c(-n2ncc(C(=O)Nc3ccc4c(c3)OCCO4)c2C)n1,i

# The whole of this part (from the top)
SMILES,GIRK2 activ
N#Cc1c(NC(=O)CCCSc2ccccc2)sc2c1CCC2,i
CCc1ccc(N2CCCCn3c2nc2c3c(=O)n(Cc3ccc(C)cc3)c(=O)n2C)cc1,i
Cc1cc(=O)n(CCNC(=O)c2ccc3ccccc3c2)cn1,i
CC(C)C[C@H](NC(=O)[C@@H](O)[C@H](N)Cc1ccccc1)C(=O)O,i
COc1ccccc1OCC#CCNC(=O)c1ccccc1F,i
CCOC(=O)c1cn[nH]c1S(=O)(=O)N1CCN(c2cccc(OC)c2)CC1,i
Nc1c(C(=O)NCc2ccccc2)nnn1-c1cccc(Br)c1,i
Cn1cc(C2=C(c3c[nH]c4ccccc34)C(=O)NC2=O)c2ccccc21,i
O=C(CCCl)Nc1ccc(-c2nc3ccccc3s2)cc1,i
Cc1ccc(-c2noc(C3CC(=O)N(c4ccc(C)c(C)c4)C3)n2)cc1 (centres undefined),i
CCOc1nn(CC)cc1C(=O)Nc1nnc(SCc2ccc(C(F)(F)F)cc2)s1,i
O=C(Cc1ccccc1Cl)NC1(c2nc(C3CC3)no2)CCCCC1,i
CNC(=O)Cc1csc(NC(=O)CN(C)c2nc3ccccc3s2)n1,i
CCOC(=O)c1c(C)n(C)c2ccc(OCC(O)CN3CCN(C(=O)c4ccccc4)CC3)cc12 (centres undefined),i
COc1ccc(OCCS(=O)(=O)N2CCCc3ccccc32)cc1,i
Fc1ccc(Nc2ncnc3[nH]ncc23)c(F)c1,i
O=C(Cn1ncc2c(c1=O)N(C1CC1)C(=O)CS2)NC1CCCCC1,i
Cc1cc(=O)[nH]c(-n2ncc(C(=O)Nc3ccc4c(c3)OCCO4)c2C)n1,i
COc1ccc(NC(=O)CN2CCc3[nH]c4c(C)c(Cl)ccc4c(=O)c3C2)cc1Cl,i
N#Cc1ccc(NC(=O)Cn2nc3c(SC4CCCCC4)nccn3c2=O)cc1,i
CCN(Cc1ccccc1)S(=O)(=O)c1cc2c3c(c1)CCN3C(=O)CC2,i
Cc1cc(C)n(-c2nc3c(c(=O)n(CCN4CCOCC4)c(=O)n3C)n2C(C)C)n1,i
CC(=O)Nc1ccc(S(=O)(=O)N2CC(Oc3nc4c(Cl)cccc4s3)C2)cc1,i
Cc1noc(C2CCCN2C(=O)C2(c3cccs3)CCCC2)n1 (centres undefined),i
O=C(NCc1n[nH]c(=O)c2ccccc12)c1ccc(C(F)(F)F)cc1,i
Cn1nnn(-c2ccc(NC(=O)Cc3cccs3)cc2)c1=O,i
Cc1ccc(N2CCn3c2nn(CC(=O)Nc2ccccc2C)c(=O)c3=O)cc1,i
CCCN1CCCc2cc(CCNC(=O)C(=O)Nc3ccc(C)cc3)ccc21,i
CC(C)CC(=O)Nc1ccc(-n2cnc(C(=O)N3CCC(C)CC3)c2)nc1,i
CCCCNC(=O)c1cccc(-n2ccnc2SCC(=O)Nc2ccc(OC)cc2OC)c1,i
Cc1ccc(Cl)cc1-n1c(-c2ccccc2)cn2c3c(=O)n(CC(N)=O)c(=O)n(C)c3nc12,i
CC(C)(C)NC(=O)[C@H]1CC[C@H]2[C@@H]3CC[C@H]4NC(=O)C=C[C@]4(C)[C@H]3CC[C@]12C,i
CCOC(=O)c1scc(-c2ccccc2)c1S(=O)(=O)Nc1cc(OC)cc(OC)c1,i
CCN(CC)CCn1c(C)cn2c3c(=O)n(Cc4cccc(C)c4)c(=O)n(C)c3nc12,i
COc1ccccc1-n1ncc2c(C)nnc(SCC(N)=O)c21,i
O=C(Cn1nc2c(c1NC(=O)c1ccccc1Cl)CSC2)NCc1ccccc1,i
O=C(Nc1cc(Cl)ccc1O)C1COCC(=O)N1Cc1ccccc1 (centres undefined),i
O=C(CSc1nc2ncccc2c(=O)n1Cc1ccccc1)Nc1ccccc1F,i
COc1cccc(-n2c(-c3ccccc3)cn3c4c(=O)n(CC(C)=O)c(=O)n(C)c4nc23)c1,i
O=C(NC(=S)Nc1ccc(S(=O)(=O)N2CCOCC2)cc1)c1ccc(Br)o1,i

# Part of the list above, field by field.
smiles: COc1ccccc1-n1ncc2c(C)nnc(SCC(N)=O)c21
  GIRK2 activ: i
smiles: O=C(Cn1nc2c(c1NC(=O)c1ccccc1Cl)CSC2)NCc1ccccc1
  GIRK2 activ: i

# (list continues)
SMILES,GIRK2 activ
COc1ccc(-c2cc3c4nn(CC(=O)Nc5cccc(C)c5)c(=O)n4ccn3n2)cc1,i
COc1cccc2c1OC(C)C(=O)N(c1ccc(F)cc1C)C2 (centres undefined),i
N#Cc1cccc(C(=O)NCC2CCN(C(=O)c3ccncc3)CC2)c1,i
CC(=O)Nc1ccc(NC(=O)c2ccc3noc(-c4ccc(Cl)cc4)c3c2)cc1,i
O=S(=O)(Cc1ccc(Cl)cc1)c1ccc(NCCC2=CCCCC2)nn1,i
CCN1C(=O)Cc2cc(NC(=O)C3CCCCC3)ccc21,i
C#CCOCC1CCN(C(=O)CC2CCCCC2)CC1,i
CCCOc1ccc(S(=O)(=O)NCc2ccc(C(O)c3cccs3)s2)cc1C (centres undefined),i
O=C(NCCOc1ccccc1)Nc1ccc2c(c1)OCO2,i
CC(=O)Nc1cccc(C2=NN(C(C)=O)C(c3ccco3)C2)c1 (centres undefined),i
O=C(CC1CCCC1)N1CCN(CCn2cccn2)CC1,i
CC1CCCCC12NC(=O)N(CC(=O)Nc1ccc(F)cc1)C2=O (centres undefined),i
COc1ccc2c(c1)c(=O)c(C(=O)c1ccc(F)cc1)cn2CC(=O)Nc1ccc(F)c(F)c1,i
CCc1c(C)nc2n(c1=O)CC(C(=O)NCCc1c[nH]c3ccccc13)CS2 (centres undefined),i
Cc1ccc2c(Nc3ccc(Cl)cc3)c(-c3nc(C)no3)cnc2n1,i
COc1cc(/C=C2\SC(=S)N(c3ccccc3)C2=O)cc(OC)c1OC,i
CCc1ccc(-c2[nH]ncc2C(=O)N2CCC(NC(=O)c3ccc(C)c(C)c3)CC2)cc1,i
COc1ccccc1N1CCN(CCNC(=O)C(=O)Nc2ccc3c(c2)OCCO3)CC1,i
COC(=O)c1ccc(C(=O)Nc2sccc2-c2nc3ccccc3s2)cc1,i
COc1cc(S(=O)(=O)N2CCCCCC2)c(OC)cc1Br,i
COc1ccc(CNC(=O)N(Cc2ccsc2)C2CC2)cc1OC,i
Cc1cc(C)c(NC(=O)C(=O)NCc2cccs2)c(C)c1,i
COC(=O)c1ccc(NC(=O)C(=O)NCCC(O)c2ccc3c(c2)OCO3)cc1 (centres undefined),i
Cc1cc(=O)n(CCNC(=O)c2ccccc2Cl)cn1,i
COc1ccc(CNc2oc(-c3ccc(S(=O)(=O)N(C)C)cc3)nc2C#N)cc1,i
CC(C)c1ccc(Nc2nccc(-c3cnn4ncccc34)n2)cc1,i
CC(C)(CO)NC(=O)CN1CCN(c2ccc3c(c2)OCO3)C1=O,i
Cc1cc(C)n(CC(=O)Nc2ccc3c(c2)OCO3)c(=O)c1S(=O)(=O)c1ccccc1,i
Cc1ccc(S(=O)(=O)CCCC(=O)N(CCN(C)C)c2nc3ccc(C)cc3s2)cc1,i
COc1ccc(NC(=O)C(=O)NCCC(O)c2cc(C)oc2C)cc1Cl (centres undefined),i
COc1cccc(Oc2c(C(F)(F)F)oc3cc(O)ccc3c2=O)c1,i
O=c1c(-c2nc(-c3ccccc3Br)no2)c[nH]c2ccc(F)cc12,i
Cc1ccc2c(c1)N(C)N=C(C(=O)N1CCCC1)S2(=O)=O,i
O=C(CCS(=O)(=O)c1ccccc1)Nc1ccc(CC(=O)NC2CC2)cc1,i
Cn1c(CN2CCN(C(=O)CSc3ccc(F)cc3)CC2)nc2ccccc21,i
Cn1c(=O)c2c(nc3n2CCN3Cc2c(F)cccc2Cl)n(C)c1=O,i
O=C(CN1CCN(S(=O)(=O)c2ccc(F)c(Cl)c2)CC1)c1ccco1,i
COc1ncccc1C(=O)N1CCCC(c2nnc(C)s2)C1 (centres undefined),i
O=C(Nc1ccc(-n2nnn(CC(=O)N3CCOCC3)c2=O)cc1)c1ccc(Cl)s1,i
CC(Oc1ccccc1)C(=O)N1CCC(CSC2=NCCS2)CC1 (centres undefined),i
COC(=O)c1ccc(C(=O)NCC#CCOc2ccc3c(c2)OCO3)cc1,i
Cc1ccc(S(=O)(=O)c2cc3c(=O)n4ccccc4nc3n(C)c2=N)cc1C,i
COc1ccc(C(=O)/C=C/c2ccccc2OC)c(O)c1,i
O=C(NCc1cccs1)C1CCCN(c2ccc(-c3cccs3)nn2)C1 (centres undefined),i
COc1ccc(C2c3c(oc4ccc(Cl)cc4c3=O)C(=O)N2C)cc1OC (centres undefined),i
COc1ccc(-c2c(NC(=O)c3cccs3)oc3ccccc3c2=O)cc1,i
Cc1cc(OCC(=O)Nc2ccc(F)cc2Cl)nc(N2CCCCCC2)n1,i
CCn1nnc2c(N3CC(C(=O)Nc4nc5c(s4)CCCC5)C3)ncnc21,i
Cc1ccc(C(=O)N2CCN(S(=O)(=O)c3cc4c5c(c3)CCN5C(=O)CC4)CC2)cc1C,i
CC1CN(C(=O)c2ccc(CNS(=O)(=O)c3cccc(C(F)(F)F)c3)cc2)CC(C)O1 (centres undefined),i

# Other results
SMILES,GIRK2 activ
COc1ccccc1S(=O)(=O)NCc1cc(C)oc1C,i
O=C(CN1CCC(c2nc(-c3cccs3)no2)CC1)Nc1ccccc1Cl,i
COc1cccc(NC(=O)N(CCc2cccs2)Cc2ccco2)c1OC,i
Cc1c(C)n2c3c(=O)[nH]c(=O)n(C)c3nc2n1C1CCCCC1,i
CC1(C)CC(NS(=O)(=O)c2ccc3c(c2)OCCO3)CC(C)(C)N1,i
CC(=O)N1CCN(C(=O)C(NC(=O)c2cccc(C)c2)S(=O)(=O)c2ccc(C)cc2)CC1 (centres undefined),i
Cc1nc2ccccc2n1Cc1ccc(C(=O)NCc2ccco2)o1,i
CCN(CC)CCn1c(C)c(C)n2c3c(=O)n(Cc4cccc(C)c4)c(=O)n(C)c3nc12,i
CC(=O)Cn1c(=O)c2c(nc3n(-c4ccc(C)cc4)c(C)cn23)n(C)c1=O,i
CCc1cccc(Nc2nc(C)cc(=O)n2CC(=O)Nc2cccc(SC)c2)c1,i
COC(=O)c1ccc(C2NN(Cc3ccccc3)C3C(=O)NC(=O)C23)cc1 (centres undefined),i
O=C(NCc1ccc(C(O)c2cccs2)s1)c1ccc(Cl)cc1 (centres undefined),i
O=S(=O)(c1ccc(N2CCN(c3ccc(F)cc3)CC2)nn1)C1CCCCC1,i
CS(=O)(=O)c1ccc(NC(=O)c2cccc(S(=O)(=O)N3CCCCCC3)c2)cc1,i
COc1ccc(OCc2ccc(-c3nc(C#N)c(N4CCC(C(N)=O)CC4)o3)o2)cc1,i
CC(C)C(=O)N1CCCc2ccc(NC(=O)C(=O)NCCc3ccc(Cl)cc3)cc21,i
O=C(CCCCn1c(=O)c2ccccc2n(Cc2ccccc2)c1=O)NCc1cccs1,i
CCOc1ccc(NC(=O)Cn2nc(-c3ccccc3)c3sc(N4CCCC4)nc3c2=O)cc1,i
O=C1CCSCC(C(=O)Nc2ccccc2OC(F)(F)F)N1 (centres undefined),i
COc1ccc(-c2cc3c(SCC(=O)Nc4cc(C)ccc4C)nccn3n2)cc1,i
CCOC(=O)c1ccc2nc(C)cc(NC(=O)c3cccs3)c2c1,i
COc1ccc(C(=O)Nc2cc(C)nn2-c2nc(-c3ccc(Cl)cc3)cs2)cc1OC,i
Cc1noc(CNC(=O)C2CC(=O)N(c3ccccc3)C2)n1 (centres undefined),i
Nc1[nH]nc2nc(-c3cccs3)cc(C(F)(F)F)c12,i
Cc1ccccc1C(=O)NCCC(O)C(C)(C)C (centres undefined),i
COc1ccc(NC(=O)c2nc(-c3cn(Cc4ccc(C)cc4)nn3)no2)cc1,i
O=c1cc(CN2CCN(C/C=C/c3ccccc3)CC2)c2cc(Cl)ccc2o1,i
COCCN(Cc1ccoc1)S(=O)(=O)CCc1ccccc1,i
COCC1CCCN(CC(=O)c2ccccc2)C1 (centres undefined),i
CS(=O)(=O)N1CCC(C(=O)N2CCC(Cn3ccnc3-c3ccccc3)CC2)CC1,i
CN1CCOc2ccc(NC(=O)CSCc3ccccc3)cc2C1=O,i
Cc1cn2c3c(=O)n(CCc4ccccc4)c(=O)n(C)c3nc2n1CCOCCO,i
O=C(Nc1nc2c(s1)CN(C(=O)CSc1ccc(F)cc1)CC2)c1ccoc1,i
CC(C)c1ccc(C2Oc3ccccc3C3=C2C(c2cccnc2)n2nnnc2N3)cc1 (centres undefined),i
CCNS(=O)(=O)c1ccc(OC)c(C(=O)Nc2cccnc2)c1,i
O=C(NCCc1ccc(Cl)cc1)C1CCCN(c2ncnc3c2oc2ccccc23)C1 (centres undefined),i
COc1cccc2cc(C(=O)NCCc3nc(-c4ccco4)cn3C)c(=O)oc12,i
Cc1cc(C(O)CCNC(=O)c2cccc3ccccc23)c(C)o1 (centres undefined),i
CC(=O)c1ccc(C(=O)Nc2sc3c(c2-c2nc4ccccc4s2)CCN(C(C)=O)C3)cc1,i

# This is a subset; rates above refer to the full screens.
